# Screens as filed in PubChem.
# Sfp inh = qHTS Assay for Inhibitors of Bacillus subtilis Sfp phosphopantetheinyl transferase (PPTase); 4'-phosphopantetheinyl transferase ffp (Bacillus subtilis), Q9F4F7; Biochemical Sfp PPTase activity, qHTS; Potency, µM, without a hit: max response, negative = inhibition, actives largely listed as inhibitors; 3.5% of 310,000 active; AID 1490, 2009; active = well fitted inhibition curve with a large enough effect; inconclusive = small, poorly fitted or top-dose-only effect, or another doubt; inactive = no such curve, though single readings can be large or run the other way;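 note: the enzyme is Sfp with the accession as filed and its product quenches rhodamine fluorescence; potency is the fitted concentration of half-maximal effect; 0% = enzyme reaction without inhibitor and -100% = no enzyme wells; top concentration of the series not given in the record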
#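 Compounds were incubated with enzyme (final 15 nM) for 15 min at room temperature before substrate addition started the reaction. Fluorescence at 525 nm excitation, 598 nm emission was recorded immediately and after 30 minutes.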
# Menin MLL FP FL = qHTS Assay for Inhibitors Targeting the Menin-MLL Interaction in MLL Related Leukemias: Competition With Fluorescein Labeled MLL-derived Peptide. Fluorescence polarization, fluorescein-MLL peptide displacement from menin. FP activity change, % at 61.4 µM. 290,000 tested, under 10 active. AID 1766, 2009; inconclusive = falling polarisation curve, or a change in total fluorescence; inactive = total fluorescence flat and polarisation flat or rising; no compound was filed as active; the % refers to the polarisation; negative = inhibition;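 note: % of control where 0% means no effect; inhibitors lower the polarisation; unlabelled MLL peptide was the positive control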
# TRPV1 potentiator = HTS Assay for Compounds that Act as Potentiators of the Vanilloid Receptor 1 | 0.02% of 320,000 active | AID 540277, 2011 | potentiation, % at 8.33 µM | TRPV1-expressing cells, Fluo-8 calcium influx, capsaicin EC20 potentiation; host cell line not named in the record; control for the full effect not named in the record | Transient receptor potential cation channel subfamily V member 1 (Homo sapiens), Q8NER1; active means potentiation above 80%; inconclusive means 30% to 80%; inactive means below 30%; note: 0% is about no effect
# Target sequence (Q8NER1 whole entry, looked up): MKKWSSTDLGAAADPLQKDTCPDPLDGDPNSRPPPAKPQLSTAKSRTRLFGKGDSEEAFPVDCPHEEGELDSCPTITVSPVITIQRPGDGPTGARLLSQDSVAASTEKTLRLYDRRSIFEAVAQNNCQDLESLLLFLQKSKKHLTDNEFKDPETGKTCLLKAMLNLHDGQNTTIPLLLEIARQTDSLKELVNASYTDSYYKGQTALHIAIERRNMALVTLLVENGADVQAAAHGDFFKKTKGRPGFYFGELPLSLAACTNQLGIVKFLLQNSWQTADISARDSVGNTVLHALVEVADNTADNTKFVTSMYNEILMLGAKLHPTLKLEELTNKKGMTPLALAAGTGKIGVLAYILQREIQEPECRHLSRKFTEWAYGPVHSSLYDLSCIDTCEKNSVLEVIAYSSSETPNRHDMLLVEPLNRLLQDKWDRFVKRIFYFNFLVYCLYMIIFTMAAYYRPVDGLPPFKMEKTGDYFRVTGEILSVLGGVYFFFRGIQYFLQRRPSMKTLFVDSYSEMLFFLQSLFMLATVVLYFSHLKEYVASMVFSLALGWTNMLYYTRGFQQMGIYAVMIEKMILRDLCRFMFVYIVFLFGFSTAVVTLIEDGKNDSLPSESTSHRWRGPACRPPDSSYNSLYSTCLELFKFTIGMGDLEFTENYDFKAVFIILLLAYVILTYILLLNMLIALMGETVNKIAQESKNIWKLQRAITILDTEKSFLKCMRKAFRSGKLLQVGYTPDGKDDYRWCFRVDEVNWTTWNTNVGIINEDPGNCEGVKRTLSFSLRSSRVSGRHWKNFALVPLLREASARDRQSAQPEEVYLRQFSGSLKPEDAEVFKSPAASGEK
#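 Fluo-8 calcium influx in TRPV1-expressing cells, kinetic read (ex 480/em 520 nm). Compound added and read 3 min for agonist activity, followed by capsaicin at EC20 final and 2 min further read for enhancement.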
# gsp antagonist = qHTS for Antagonists of gsp, the Etiologic Mutation Responsible for Fibrous Dysplasia/McCune-Albright Syndrome: qHTS; gsp-mutant cells, cAMP HTRF, 30 min; control for the full effect not named in the record; Potency, µM (series often up to 76.9 µM), for inactives: at the highest dose activity change, negative = inhibition, most hits filed as inhibitors; 0.4% of 340,000 active; AID 624288, 2012; active = falling curve of any shape with a large fitted effect; inconclusive = falling curve, mostly with a smaller effect; inactive = flat or rising curve; cell line not stated here;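 note: intracellular cAMP measured with PDE inhibitor Ro 20-1724 present during compound exposure; potency is the fitted concentration of half-maximal effect; % is set by controls: 0 for no effect and ±100 for the full control effect; nearly all actives have a fitted effect of over 65% in size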
#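 G418-selected cells were plated in DMEM/10% FBS for 16-24 h at 37C, then treated with compounds plus the PDE inhibitor […] (300 uM solution added) for 30 min at 37C. Intracellular cAMP was measured by HTRF after 30 min lysis at room temperature.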
# gsp agonist = qHTS for Agonist of gsp, the Etiologic Mutation Responsible for Fibrous Dysplasia/McCune-Albright Syndrome: qHTS. AID 624287, 2012. gsp mutant cells, cAMP HTRF, 30 min; control for the full effect not named in the record. Potency, µM (top dose mostly 76.9 µM), for inactives: at the highest dose activation (cAMP increase), most hits filed as activators. 0.13% of 340,000 active; active = well fitted activation curve with a large enough effect; inconclusive = small, poorly fitted or top-dose-only effect, or another doubt; inactive = no such curve, though single readings can be large or run the other way; cell line not stated here;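 note: phosphodiesterase inhibitor Ro 20-1724 added with compounds to block cAMP breakdown; potency is the fitted concentration of half-maximal effect; nearly all actives have a fitted effect of over 60% in size; about a fifth of the inactives were tested at one dose only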
#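 Cells in DMEM/10% FBS with G418 were pretreated with compounds in DMSO plus […] (300 uM stock) for 30 min at 37C. cAMP was measured by HTRF (cAMP-d2 plus anti-cAMP antibody-K) after 30 min at room temperature.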
# ClpP mod = qHTS Assay for Activators of ClpP; 1.9% of 340,000 active; AID 651965, 2013; purified B. subtilis ClpP, FRET peptide cleavage, 20 min; Potency, µM (titrated, usually from 57.5 µM), without a hit: at the top dose activity change, negative = active; ATP-dependent Clp protease proteolytic subunit (Bacillus subtilis (strain 168)), P80244; active = well fitted falling curve with a large enough effect; inconclusive = small, poorly fitted or top-dose-only effect; inactive = no such curve, though single readings can be large or run the other way; note: potency is the fitted concentration of half-maximal effect; the source files actives as falling curves though it sought activators and does not explain the sign; nearly all actives have a fitted effect of over 65% in size; many hits overshoot -100%
# Target sequence (P80244 whole entry, looked up): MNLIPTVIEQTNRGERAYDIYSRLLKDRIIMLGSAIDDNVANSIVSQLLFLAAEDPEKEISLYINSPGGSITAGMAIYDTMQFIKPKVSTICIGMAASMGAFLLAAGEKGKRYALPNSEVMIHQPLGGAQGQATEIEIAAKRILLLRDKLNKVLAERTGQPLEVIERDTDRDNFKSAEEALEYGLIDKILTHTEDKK
#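 FRET quenching reversal measured ClpP activation: 10 microg/mL B. subtilis ClpP at pH 8 with the FRET-FV decapeptide, read at 430 nm after 320 nm excitation. The 20-min minus 0-min signal was scaled between DMSO/no-enzyme wells and ADEP (5.8 microM final).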
# CtBP-E1A inh = qHTS Assay for Inhibitors of the CtBP/E1A Interaction. 0.49% of 340,000 active. AlphaScreen GST-E1A/His-CtBP binding, 1536-well; hits give low values; control for the full effect not named in the record. CtBP / adenovirus E1A interaction (AlphaScreen). activity change, % (test concentration not listed); in the data active means activity change below about -65%; inconclusive means about -30% to -65%; inactive means above about -30%; note: % is set by controls: 0 for no effect and ±100 for the full control effect; compound concentration not given in the record
#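 Homogeneous bead-based format: GST-tagged E1A captured on glutathione donor beads, His-tagged CtBP on nickel acceptor beads; compounds precede bead addition by 2 h at 37 °C.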
# The depositor's hits bear a star; ? = inconclusive; / = not tested or not shown; [ ] = dose if it differs, or a comment.
# Value order – Sfp inh	Menin MLL FP FL	TRPV1 potentiator	gsp antagonist	gsp agonist	ClpP mod	CtBP-E1A inh
[O-]c1n[n+](-c2ccc(Cl)cc2)cc2ccccc12
 : 12%	1.4	6	/	33%[15.4 µM]	/	-9
Cc1[nH][nH]c(=O)c1C(c1ccc(-c2cccc(C(=O)O)c2)o1)c1c(C)[nH][nH]c1=O
 : 16µM*	2.2	11	-2%	-6%	/	-15
CC(NC(=O)c1cc(S(=O)(=O)N2CCOCC2)cn1C)c1ccccc1 (stereo not given)
 : 33%[activator]	0.8	-6	8%	-23%	-0.5%	8
Cc1cc(C)n(S(=O)(=O)c2ccc3ccccc3c2)n1
 : -6%	-0.5	3	-8%	-9%	-1.1%	9
CC1CC1C(=O)OCC(=O)Nc1ncc(Cl)cc1Cl (stereo not given)
 : /	/	-1	2%	-6%[15.4 µM]	/	1
CC(C)Cc1nc(C#N)c(N2CCC(C(N)=O)CC2)o1
 : -9%	6.4	-3	6%	-72%[inhibitor]	-28%	-9
N#C[C@@H]1N(Cc2ccccc2)C(=O)[C@H]2CC3C=CC21O3 (stereo not given in full)
 : /	/	-36	16%	/	0.2%	6
Cc1cc(NCCO)nc(-n2nc(C)cc2C)n1
 : 0%	2.8	0	14%	-1%	-3.4%	-3
COc1ccc(NC2SC(=O)N(CC(=O)O)C2=O)cc1 (stereo not given)
 : -6%	-0.2	-7	-1%	-10%	-5.8%	-3
O=S1(=O)C=C(Sc2nnc(-c3ccccc3)o2)c2ccccc21
 : 16µM*	-0.3	?	22%	16%	-0.7%	2
CCOC(=O)c1cnc2nc(Cc3ccccc3)[nH]n2c1=O
 : 8%	-2.2	-21	2%	?	-19%	2
CC(C)(C)n1ncc2c(=O)n(Cc3cccc(Cl)c3)cnc21
 : -5%	9.7	-14	7%	-27%	2.3%	8
Cc1ccccc1-c1nnc(-c2cccs2)o1
 : 8%	-4.9	-6	1%	12%	4.1%	3
Clc1cccc(Cl)c1COn1nnc2ccccc21
 : -2%	6.4	-7	-3%	-37%[inhibitor]	0.9%	22
COc1cccc(NC(=O)N(C)C[C@H]2Oc3ncc(Br)cc3C(=O)N([C@H](C)CO)C[C@H]2C)c1
 : /	/	/	/	-15%	-1.3%	5
CN(C)CCN(C(=O)c1ccc(Br)s1)c1nc2cc3c(cc2s1)OCCO3
 : 56µM*	-2.5	6	4%	13%	/	-3
C/C(=C/c1ccccc1)C(=O)N1CCN(c2ccc(F)cc2)CC1
 : 9%	-3.8	-20	0%	-4%	-2.9%	/
O=[N+]([O-])c1ccc(Nc2ccccc2F)nc1
 : 7%	-0.7	9	-2%	17%	-0.2%	1
O=Cc1ccc(OC(=O)C2CC(=O)N(c3ccc(F)cc3)C2)cc1 (stereo not given)
 : 6%	-0.9	3	3%	-11%	0.2%	3
CCc1ccccc1NC(=O)C1CCCC1
 : /	/	/	1%	2%	1.0%	5
CC(=O)Nc1ccc(S(=O)(=O)N[C@@H](C)C(=O)OCC(=O)c2ccc(C)cc2)cc1
 : /	/	/	-6%	?	1.1%	5
O=C1c2ccccc2C(=O)N1CC(O)COc1ccccc1Cl (stereo not given)
 : 12%	-0.2	18	1%	-1%	-2.1%	/
CC(=O)c1ccc(NC(=S)NCc2ccco2)cc1
 : -5%	-3.4	-3	10%	-11%	0.9%	-1
CCN1CCCc2cc(CN(CCN3CCOCC3)C(=S)Nc3ccc(OC)cc3)ccc21
 : 21%	-2.4	6	7%	-14%	-1.3%	/
COc1ccc(NC(=O)CCC(=O)NCc2ccco2)c([N+](=O)[O-])c1
 : 13%	-0.6	-5	-1%	22%	1.6%	5
CCOC(=O)N1CCN(S(=O)(=O)c2ccc(F)c(C(=O)Nc3ccc(C(C)C)cc3)c2)CC1
 : 19%	1.3	3	-26%	19%	?	25
CN(C)S(=O)(=O)c1cccc(C(=O)Nc2cc(Cl)ccc2O)c1
 : -13%	6.9	-26	-8%	?	-1.1%	-18
CCn1c(=O)cc(O)c2c(=O)n(C)c(=O)n(C)c21
 : 5%	-4.1	-1	12%	?	-1.1%	6
CN(Cc1ccccc1)C(=O)COC(=O)c1cc(S(=O)(=O)N(C)C)ccc1N1CCCC1
 : /	/	3	-7%	2%[15.4 µM]	/	1
NC(=O)CCCc1nc(-c2ccccc2Cl)no1
 : 11%	0.9	/	4%	?	-0.2%	1
O=C1CCC[C@@H]2CC(Nc3ccc(F)cc3F)C[C@@H]3CCN1[C@H]23 (stereo not given in full)
 : -30%	1.2[94.6 µM]	/	-2%	/	-0.9%	4
O=c1cc(-c2ccccc2)[nH]c2nc3ccccc3n12
 : -27%	4.8	-15	13%	?	11µM*	2
Cc1ccc(NC(=O)c2cc(-n3cnnc3)ccc2Cl)c(C)c1
 : -5%	-0.9	6	12%	27%	0.0%	0
CCCCCCCCCCCCCCCC[N+](C)(C)Cc1ccc(F)cc1
 : /	/	/	3%	11%	-3.8%	4
COc1ccc(OCC(=O)N/N=C(\C)CC(=O)Nc2ccc(NC(C)=O)cc2)cc1
 : -8%	-9.0	-1	12%	-4%[15.4 µM]	-0.6%	-2
C=CCN(c1ccccc1)S(=O)(=O)c1c(C)[nH]c(=O)[nH]c1=O
 : 15%	-0.9	15	-13%	-16%[15.4 µM]	/	3
COc1ccc(CCNC(=O)c2ccc3nc4cc(Cl)ccc4c(=O)n3c2)cc1OC
 : -13%	-1.6	20	13%	11%	-2.6%	-26
Clc1ccccn1
 : /	/	7	-7%	/	-1.0%	-10
CN=c1scc(-c2ccc([N+](=O)[O-])cc2)n1/N=C/c1ccco1
 : 7%	3.6	-1	13%	-5%[15.4 µM]	/	-10
C=CCOC(=O)C1=C(C)Nc2nc3ccccc3n2C1c1ccncc1 (stereo not given)
 : 0%	-0.1	-8	-3%	0%	-12%	-2
CCCCC(=O)Nc1ccc(C(=O)Nc2nc(CC(=O)OCC)cs2)cc1
 : 22%	5.3	26	14%	-12%	-1.7%	0
Cn1c(CNC2CCCCC2)c(C#N)c2ccccc21
 : 6%	0.4	-16	7%	-24%	0.2%	8
COC(=O)CCCNC(=O)c1ccc(S(=O)(=O)NCc2ccco2)cc1
 : /	/	7	8%	5%	?	2
CCOC(=O)c1ccccc1NC(=O)C1CSC2(C)CCC(=O)N12 (stereo not given)
 : 2%	-1.0	0	1%	-21%	?	0
COc1ccc(NC(=O)N(C)C[C@H]2OCc3cnnn3CCCC(=O)N([C@@H](C)CO)C[C@H]2C)cc1
 : /	/	/	/	-37%[inhibitor]	1.9%	23
COc1cc(CCCN2CCNC[C@@H]2c2ccccc2)cc(OC)c1OC
 : /	/	/	11%	38%	-2.2%	-24
CCOC(=O)n1c(=O)n(Cc2cccc(C)c2)c2ccccc21
 : 7%	-2.2	-13	-13%	-5%[15.4 µM]	/	11
COc1ccc(Cn2c(-c3ccco3)nc3oc4ccccc4c(=O)c3c2=O)cc1
 : 8%	4.5	15	24%	10%	0.3%	9
CCC(C)c1ccc(NC(=O)CN(C)CC(=O)Nc2cccc(OC)c2)cc1 (stereo not given)
 : -31%	-0.4	-6	6%	-22%	-2.1%	/
Cc1cc(NC(=O)Nc2ccccc2)n(-c2ccccc2)n1
 : -1%	-1.2	-11	2%	8%	-0.1%	/
CCc1ccc(NC(=O)C(=O)NCCN2CCN(S(=O)(=O)c3ccccc3)CC2)cc1
 : 19%	/	0	7%	6%[15.4 µM]	/	15
COc1ccccc1NS(=O)(=O)c1cc(C(=O)NCC2CCCO2)ccc1C (stereo not given)
 : /	/	-4	12%	?	2.0%	8
Cc1ccc(C(=O)c2ccccc2C(=O)OCC(=O)Nc2ccc(SC(F)F)cc2)cc1
 : ?	14	-10	-11%	-40%[inhibitor]	-0.7%	-1
COc1ccc(-n2cc(-c3ccccc3)[nH]c2=S)cc1
 : -26%	-1.0	5	-1%	0%	14µM*	-8
O=C(NS(=O)(=O)c1ccccc1)c1ccccc1F
 : 15%	10	21	-10%	-8%	0.4%	1
Cc1ccc(C(=O)OCC(=O)N(C)C2CCS(=O)(=O)C2)cc1S(=O)(=O)N1CCCCC1 (stereo not given)
 : /	/	-1	-5%	-3%	-2.7%	4
C[C@@H]1CN([C@H](C)CO)C(=O)CCCn2nncc2CO[C@@H]1CN(C)C(=O)OCc1ccccc1
 : /	/	/	/	-78%	-1.4%	-3
FC(F)(F)c1cccc(NC(=S)NCc2ccc(Cl)cc2)c1
 : 19%	-0.8	-10	-18%	10%[15.4 µM]	/	8
O=C(c1ccccc1)c1cccc(C(=O)c2ccccc2)c1
 : /	/	-14	-19%	-17%	-0.2%	/
COc1ccccc1CC(=O)Nc1ccc([N+](=O)[O-])cc1O
 : 9%	-0.1	3	-9%	12%	/	-14

# (cont.)
# Value order – Sfp inh	Menin MLL FP FL	TRPV1 potentiator	gsp antagonist	gsp agonist	ClpP mod	CtBP-E1A inh
CCCOc1ccc(/C(O)=C2/C(=O)C(=O)N(c3cc(C)on3)C2c2ccc(C(=O)OC)cc2)cc1 (stereo not given)
 : -12%	-0.9	22	-12%	?	0.4%	2
CCCC(=O)NCc1ccccc1Cl
 : 19%	-4.4	6	7%	-16%	0.8%	4
CCc1ccc(OCC(=O)OC(C)C(=O)Nc2ccc(Cl)cn2)cc1 (stereo not given)
 : /	/	-15	-2%	10%	-1.7%	-8
Cc1cc(OCC(=O)Nc2ccncc2)c(C)cc1Br
 : 2%	4.1	-1	?	?	-2.5%	-4
CCCCN(CC)S(=O)(=O)N1CCC(C(=O)NCCCN2CCOCC2)CC1
 : 9%	3.6	5	5%	-8%	-2.0%	14
